Menin-MLL FL inh: displaces fluorescein MLL peptide from human menin. Fluorescence polarization, fluorescein-MLL peptide displacement from menin. FP activity change, % at 61.4 µM. 290,000 tested, under 10 active; inconclusive = falling polarisation curve, or a change in total fluorescence; inactive = total fluorescence flat and polarisation flat or rising; no compound was filed as active; the % refers to the polarisation; negative = inhibition;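 note: % of control where 0% means no effect; inhibitors lower the polarisation; unlabelled MLL peptide was the positive control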
Sfp PPTase inh: blocks B. subtilis Sfp PPTase activity; Potency, µM, for the others: max response, negative = inhibition, most hits filed as inhibitors; Q9F4F7; 310,000 compounds, 3.5% hits; AID 1490; Biochemical Sfp PPTase activity, qHTS; active = well fitted inhibition curve with a large enough effect; inconclusive = small, poorly fitted or top-dose-only effect, or another doubt; inactive = no such curve, though single readings can be large or run the other way;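 note: the enzyme is Sfp with the accession as filed and its product quenches rhodamine fluorescence; potency is the fitted concentration of half-maximal effect; 0% = enzyme reaction without inhibitor and -100% = no enzyme wells; top concentration of the series not given in the record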
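Reaction rates are the 30-min fluorescence difference (ex 525, em 598 nm) in wells containing 15 nM Sfp, 5 uM rhodamine-CoA and 12.5 uM BHQ-2-YbbR at pH 7.6 with 10 mM MgCl2.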
Active calls of the source: *; & = joins results of further samples; [ ] = remark or other dose.

`OC(CN1CCNCC1)Cn1c2ccc(Br)cc2c2cc(Br)ccc21` (stereo unspecified) gave Menin-MLL FL inh -12 and Sfp PPTase inh 35µM*.
COc1ccccc1N1CCN(C[C@@H](O)COc2cccc3ccccc23)CC1 was read as Menin-MLL FL inh inconclusive and Sfp PPTase inh -17%&12%.
NCC1CCC(C(=O)O)CC1 (stereo unspecified) was read as Menin-MLL FL inh 1.3 and Sfp PPTase inh 17%&17%.
For Nc1[nH]nc2nc3ccccc3nc12 the results were Menin-MLL FL inh inconclusive and Sfp PPTase inh 9%.
Screening CCC1=C2CC[C@H]3C(=O)N(CC)C(=O)[C@H]3[C@H]2[C@@]2(C)C(=O)N(CC(=O)OC)C(=O)N2C1=O returned Menin-MLL FL inh -1.6 and Sfp PPTase inh 1%.
`O=C(O)c1cc(N(Cc2ccccc2O)Cc2cc(O)ccc2O)ccc1O` gave Menin-MLL FL inh 4.4&-2.0 and Sfp PPTase inh 18µM*.
`O[C@@H]1COC2[C@@H](O)CO[C@@H]21` (stereo partly specified) gave Menin-MLL FL inh 1.3 and Sfp PPTase inh -6%.
O=C(COc1ccc(Cl)cc1)OCCNC12CC3CC(CC(C3)C1)C2 was read as Menin-MLL FL inh -0.6 and Sfp PPTase inh inconclusive.
For C=CCc1cccc(C2C(C)CCC3C(=O)N4C(Cc5c([nH]c6ccccc56)C4c4cc(OC)c(OC)c(OC)c4)C(=O)N32)c1 (stereo unspecified) the results were Menin-MLL FL inh -2.9[11.7 µM] and Sfp PPTase inh 10%.
For CCCCCC(CC(=O)O)C(=O)O (stereo unspecified) the results were Menin-MLL FL inh -3.3 and Sfp PPTase inh 12%.
Screening CO[C@H]1COC(=O)[C@@H](C)COC(=O)[C@@H](OCc2ccccc2)/C=C\[C@@H]1C returned Menin-MLL FL inh 0.5[11.7 µM] and Sfp PPTase inh 20%.
Screening CC(C)[C@H](NC(=O)OCc1ccccc1)C(=O)N[C@H](C=O)Cc1ccccc1 returned Menin-MLL FL inh 1.6 and Sfp PPTase inh 23%.
For CN[C@@H]1[C@H](O[C@H]2[C@@H](O[C@@H]3[C@@H](O)[C@@H](O)[C@@H](N=C(N)N)[C@@H](O)[C@@H]3N=C(N)N)O[C@@H](C)[C@]2(O)CO)O[C@H](CO)[C@@H](O)[C@@H]1O the results were Menin-MLL FL inh 0.8[24.8 µM] and Sfp PPTase inh 14%.
Screening CCCCC[C@H](O)/C=C/C=C\C/C=C\C/C=C\CCCC(=O)O returned Menin-MLL FL inh 0.5 and Sfp PPTase inh 10%&11%.
For CC(C)(C)OC(=O)N1CCC[C@H]1C(O)(c1ccccc1)c1ccccc1 the results were Menin-MLL FL inh -4.6 and Sfp PPTase inh 5%.
For CC[C@H](C)[C@H](NC(=O)CNC(=O)[C@H](CC(C)C)NC(=O)[C@H](CC(C)C)NC(=O)[C@H](CCC(N)=O)NC(=O)[C@H](CCC(N)=O)NC(=O)[C@H](CC(=O)O)NC(=O)[C@H](CCCCN)NC(=O)[C@H](CC(C)C)NC(=O)[C@H](Cc1ccc(O)cc1)NC(=O)[C@H](CCCNC(=N)N)NC(=O)[C@H](CCC(=O)O)NC(=O)[C@@H](NC(=O)[C@H](C)NC(=O)[C@H](CC(C)C)NC(=O)[C@@H](NC(=O)[C@@H](N)CCCNC(=N)N)[C@@H](C)CC)C(C)C)C(=O)N[C@@H](Cc1c[nH]c2ccccc12)C(=O)NCC(=O)N[C@@H](CS)C(=O)N[C@@H](CO)C(=O)O the results were Menin-MLL FL inh -0.7 and Sfp PPTase inh -4%.
Screening CC(C)C(C(=O)O)N1C(=O)/C(=C/c2ccc(Br)cc2)SC1=S (stereo unspecified) returned Menin-MLL FL inh -0.2 and Sfp PPTase inh inconclusive.
For COc1cccc2c1CCCC2CCCN1CCN(C2CCCCC2)CC1 (stereo unspecified) the results were Menin-MLL FL inh 0.0&-6.4 and Sfp PPTase inh 2%&12%.
Screening CCCCCCCCCCN1CCOCCOCCN(CCCCCCCCCC)CCOCCOCC1 returned Menin-MLL FL inh -1.4 and Sfp PPTase inh 15%.
CSCC[C@H](N)C(=O)N[C@@H](CCCN=C(N)N)C(=O)N[C@@H](Cc1ccccc1)C(=O)N[C@@H](Cc1ccccc1)C(=O)N[C@H](C(=O)O)C(C)C was read as Menin-MLL FL inh -1.3 and Sfp PPTase inh 6%.
Screening C#CCCCO/N=C1/C[C@@H](O)[C@@H](O)[C@@H]2[C@@H]3C(=O)N(CCC(=O)OCC)C(=O)[C@H]3CC[C@H]12 returned Menin-MLL FL inh -0.5[11.7 µM] and Sfp PPTase inh 0%.
CC(C)C[C@@H](CC(=O)N[C@@H](CCCN)CC(=O)N[C@@H]1CCNC[C@H]1C(=O)N[C@H](CC(=O)N[C@@H](CCC(=O)O)CC(=O)O)Cc1ccccc1)NC(=O)[C@@H]1CNCC[C@H]1N was read as Menin-MLL FL inh -5.0 and Sfp PPTase inh -16%.
O=C(OC1C[C@H]2CC[C@@H](C1)[N+]21CCCC1)C(O)(c1ccccc1)c1ccccc1 (stereo partly specified) was read as Menin-MLL FL inh 1.8 and Sfp PPTase inh 20%.
`Cc1cc2oc(=O)cc(-c3ccccc3)c2c(C)c1-c1cccc(N)c1` gave Menin-MLL FL inh 1.5[94.6 µM] and Sfp PPTase inh -2%.
CCCCC/C=C\C/C=C\CCCCCCCCCC(=O)NCC(=O)O was read as Menin-MLL FL inh -7.4 and Sfp PPTase inh 14%.
`O=C1[C@H]2[C@H]3[C@H](O)[C@H](O)C/C(=N/OCc4ccccc4)[C@H]3CC[C@@H]2C(=O)N1Cc1ccc2c(c1)OCO2` gave Menin-MLL FL inh 0.1[11.7 µM] and Sfp PPTase inh 20%.
Screening CC(C)CO/N=C1/C[C@@H](O)[C@@H](O)[C@@H]2[C@@H]3C(=O)N(c4cccc(Oc5ccccc5)c4)C(=O)[C@H]3CC[C@@H]12 returned Menin-MLL FL inh -4.6[11.7 µM] and Sfp PPTase inh 16%.
For N[C@@H](CC(=O)O)C(=O)O the results were Menin-MLL FL inh 5.2&-2.8 and Sfp PPTase inh inconclusive.
`Cc1ccc(N)c(Cl)c1` gave Menin-MLL FL inh 4.9 and Sfp PPTase inh 11%.
Screening COC(=O)NC(/C(C(=O)OC)=C(\C)NCc1ccccc1)c1ccc2ccccc2c1 (stereo unspecified) returned Menin-MLL FL inh 7.3[11.7 µM] and Sfp PPTase inh -28%.
For CCCn1c(C)nc2c(NCCCCN(CC)CC)nc(C)nc21 the results were Menin-MLL FL inh -9.4 and Sfp PPTase inh 14%.
`CC(C)C[C@@H](CC(=O)N[C@@H](CCC(=O)O)CC(=O)O)NC(=O)[C@@H]1CCCC[C@H]1NC(=O)C[C@@H](NC(=O)C[C@H](CO)NC(=O)[C@@H]1CNCC[C@H]1N)C(C)C` gave Menin-MLL FL inh 1.7 and Sfp PPTase inh -13%.
For C[C@H]1C=C2C=C[C@H](C)[C@H](CC[C@@H]3C[C@@H](O)CC(=O)O3)[C@H]2[C@@H](OC(=O)[C@@H](C)CCO)C1 the results were Menin-MLL FL inh 89[activator] and Sfp PPTase inh -19%.
Screening COC(=O)c1ccc(C(NC(=O)OCc2ccccc2)/C(F)=C/[C@@H](C)C(=O)N(C)Cc2cccnc2)cc1 (stereo partly specified) returned Menin-MLL FL inh -1.4 and Sfp PPTase inh 12%.
`CC(=O)N[C@H]1[C@@H](O[C@@H](C)C(=O)O)[C@H](O)[C@H](CO)O[C@@H]1O` gave Menin-MLL FL inh -1.7[24.8 µM] and Sfp PPTase inh 15%.
`CC(=O)N/N=C/c1ccc([N+](=O)[O-])o1` gave Menin-MLL FL inh -3.1 and Sfp PPTase inh 2%.
Screening CC/C=C\C/C=C\C/C=C\C/C=C\C/C=C\C/C=C\CCC(=O)NCCCC(=O)O returned Menin-MLL FL inh -2.7 and Sfp PPTase inh -14%.
CCCCCCCCCCCCCCCC(=O)N[C@H](CN1CCOCC1)[C@H](O)c1ccccc1 was read as Menin-MLL FL inh -2.8 and Sfp PPTase inh 12%&-12%.
`Cc1ccccc1C1CC(=O)Oc2cc(C)c(Br)c(C)c21` (stereo unspecified) gave Menin-MLL FL inh 2.5[94.6 µM] and Sfp PPTase inh -26%.
Screening CC1(OC(=O)c2ccc(Cl)nc2)C(=O)C=C2C=C(c3ccsc3)OC=C2C1=O (stereo unspecified) returned Menin-MLL FL inh 7.6 and Sfp PPTase inh -26%.
CC(=O)OC[C@H]1O[C@@H](O/N=C(\C)CCN2CCCCc3nc(C)c(C)cc32)[C@H](OC(C)=O)[C@@H](OC(C)=O)[C@H]1OC(C)=O was read as Menin-MLL FL inh 1.0[11.7 µM] and Sfp PPTase inh 12%.
CCCCCCCCCCCCCCCCCCCCCCO was read as Menin-MLL FL inh -6.6&3.2 and Sfp PPTase inh -5%&9%.
Screening N[C@@H](COC(c1cccc(F)c1)c1ccccc1OCc1ccccc1)C(=O)O (stereo partly specified) returned Menin-MLL FL inh -0.8 and Sfp PPTase inh -14%.
Screening Nc1c(CC(=O)O)cccc1C(=O)c1ccc(Br)cc1 returned Menin-MLL FL inh 4.8 and Sfp PPTase inh 28%.
For NCCC[C@@H](CC(=O)N[C@@H]1CCNC[C@H]1C(=O)N[C@H](CC(=O)N[C@@H](CCC(=O)O)CC(=O)O)Cc1c[nH]c2ccccc12)NC(=O)C[C@H](CO)NC(=O)[C@@H]1CNCC[C@H]1N the results were Menin-MLL FL inh 0.0 and Sfp PPTase inh -17%.
Screening COC(=O)CC1C(C)(C)C(OC(C)=O)C2CC3C4CC(=O)OC(c5ccoc5)[C@]4(C)CCC3[C@@]1(C)C2=O (stereo partly specified) returned Menin-MLL FL inh 5.2 and Sfp PPTase inh -8%.
For COc1ccc(-c2nc3c(c4c2C[C@H](c2ccccc2)OC4)CN(S(=O)(=O)c2ccc(C#N)cc2)CC3)c(C)c1 the results were Menin-MLL FL inh 5.5[11.7 µM] and Sfp PPTase inh 6%.
`C=C(CC[C@@H](C)[C@H]1CCC2[C@]1(C)CC[C@]13C[C@@]14CCC(OC(=O)/C=C/c1ccc(O)c(OC)c1)C(C)(C)[C@@H]4CC[C@@]23C)C(C)C` (stereo partly specified) gave Menin-MLL FL inh 0.3 and Sfp PPTase inh 64%[activator].

Copied from the listing, 4 compounds:
`Cc1ccccc1C1CC(=O)Oc2cc(C)c(Br)c(C)c21` (stereo unspecified) gave Menin-MLL FL inh 2.5[94.6 µM] and Sfp PPTase inh -26%.
Screening CC1(OC(=O)c2ccc(Cl)nc2)C(=O)C=C2C=C(c3ccsc3)OC=C2C1=O (stereo unspecified) returned Menin-MLL FL inh 7.6 and Sfp PPTase inh -26%.
CC(=O)OC[C@H]1O[C@@H](O/N=C(\C)CCN2CCCCc3nc(C)c(C)cc32)[C@H](OC(C)=O)[C@@H](OC(C)=O)[C@H]1OC(C)=O was read as Menin-MLL FL inh 1.0[11.7 µM] and Sfp PPTase inh 12%.
CCCCCCCCCCCCCCCCCCCCCCO was read as Menin-MLL FL inh -6.6&3.2 and Sfp PPTase inh -5%&9%.

Retrieved one by one from above, two records:
For NCCC[C@@H](CC(=O)N[C@@H]1CCNC[C@H]1C(=O)N[C@H](CC(=O)N[C@@H](CCC(=O)O)CC(=O)O)Cc1c[nH]c2ccccc12)NC(=O)C[C@H](CO)NC(=O)[C@@H]1CNCC[C@H]1N the results were Menin-MLL FL inh 0.0 and Sfp PPTase inh -17%.
`C=C(CC[C@@H](C)[C@H]1CCC2[C@]1(C)CC[C@]13C[C@@]14CCC(OC(=O)/C=C/c1ccc(O)c(OC)c1)C(C)(C)[C@@H]4CC[C@@]23C)C(C)C` (stereo partly specified) gave Menin-MLL FL inh 0.3 and Sfp PPTase inh 64%[activator].

(more compounds)
For O=C1[C@@H]2[C@H]3[C@H](O)[C@H](O)C/C(=N/OCc4ccccc4)[C@H]3CC[C@H]2C(=O)N1c1ccc(F)cc1F the results were Menin-MLL FL inh 1.7[11.7 µM] and Sfp PPTase inh 14%.
For CC(C)=NO[C@@H](C)c1cc(-c2c(C)cc(C)cc2C)no1 the results were Menin-MLL FL inh -5.5[11.7 µM] and Sfp PPTase inh 14%.
Screening CC(C)CC1(C(=O)NCC2CC2)C=CCN1C(=O)c1ccccc1 (stereo unspecified) returned Menin-MLL FL inh -0.1 and Sfp PPTase inh -27%.
For COC(=O)[C@@]1(Cc2ccc(F)cc2)[C@@H]2C(=CC(=O)[C@H]2CC(=O)C(=O)N(C)C)CN1C(=O)c1ccccc1 the results were Menin-MLL FL inh 0.7 and Sfp PPTase inh 15%.
Screening COc1cccc(/C=C/C2=CC3(C)CC2(C)C(c2cccc(OC)c2)CC3=O)c1 (stereo unspecified) returned Menin-MLL FL inh -4.2[11.7 µM] and Sfp PPTase inh -1%.
CC(=O)[C@]1(O)CCC2C3CC(C)C4=CC(=O)C=CC4(C)[C@@]3(F)C(O)C[C@]21C (stereo partly specified) was read as Menin-MLL FL inh -1.4 and Sfp PPTase inh 21%.
`CCOC(=O)C1=C(C)NC(=S)NC1c1cccc(O)c1` (stereo unspecified) gave Menin-MLL FL inh 6.9&6.3 and Sfp PPTase inh -7%&9%&-16%.
`C[C@H](NC(=O)CNC(=O)[C@@H](NC(=O)[C@H](Cc1ccccc1)NC(=O)CNC(=O)CNC[C@@H](N)Cc1ccccc1)[C@@H](C)O)C(=O)N[C@@H](CCCN=C(N)N)C(=O)N[C@@H](CCCCN)C(=O)N[C@@H](CO)C(=O)N[C@@H](C)C(=O)N[C@@H](CCCN=C(N)N)C(=O)N[C@@H](CCCCN)C(N)=O` gave Menin-MLL FL inh -1.2 and Sfp PPTase inh 13%.
O=C1CCCC2CCCCN12 (stereo unspecified) was read as Menin-MLL FL inh 7.5[188 µM] and Sfp PPTase inh 10%.
`CC(C)=CCn1cnc2c1C(NOCc1ccccc1)=NCN2` gave Menin-MLL FL inh 1.0 and Sfp PPTase inh -25%.

Some of the compounds tested (hit frequency here may not be typical).
